Calb FLC = affects C. albicans growth with fluconazole | actives 0.57% (n = 300,000) | AID 1979 | growth inhibition, % (no concentration beside the values) | C. albicans CaCi-2 (fluconazole-resistant clinical isolate) + fluconazole, Alamar Blue growth, 48 h;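 active means most replicates above 75%; inconclusive means exactly half above 75%; inactive means most below 75%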;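 further: all wells also contain fluconazole at 8 µg/ml as a sub-toxic cotreatment; 0% = median of DMSO wells and 100% = median of geldanamycin control wells; wells of about 8 µL received 7.5 nL stock; the first replicate is given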
Beta apoptosis = blocks beta cell apoptosis. actives 0.8% (n = 300,000). INS-1E cytokine-induced death, ATP luminescence, 48 h; percent of positive-control rescue, neutral wells zero. protection from apoptosis, % (concentration not given with the values);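 active means all replicates at 75% or more, or half of them and the mean; inconclusive means half reach 75% but not the mean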;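 further: 0% = cytokine-treated negative control wells and 100% = positive control rescue; higher means more ATP so stronger rescue from cytokine killing; wells of about 40 µL received 100 nL stock; the first replicate is given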
T cruzi repl = blocks replication of Trypanosoma cruzi | T. cruzi beta-gal in NIH3T3, luminescence, 90 h | inhibition, % (no concentration beside the values) | actives 1.4% (n = 300,000);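 active means mean inhibition across valid replicates above about 55%, limit read from the data; inconclusive means mean below that limit but half or more replicates reach it; inactive means mean below it, under half of replicates reach it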;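 further: signal also drops with host cell toxicity which is not excluded here; 0% = plate median of DMSO wells and 100% = zero luminescence signal; higher percent means less beta-gal luminescence so fewer parasites; stock transfer was 50 nL into about 50 µL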
Bfl-1 A1 inh = inhibitors of the anti-apoptotic protein A1, read as caspase activation; AID 2462; actives 0.066% (n = 330,000); MEF A1-2A-BIM cells, Caspase-Glo 3/7 luminescence, 3 h; percent of clofoctol response, vehicle zero; caspase activation, % (concentration not given with the values);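 active means over half of replicate activation scores above 10%, or exactly half above 10 with the replicate mean above 10; inconclusive means replicate mean below 10 yet half the replicates above 10; inactive means over half of replicates below 10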;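 further: wells of about 30 µL received 50 nL stock; many hits fall short of the cut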
RanGTP-Impb inh = inhibitors of RanGTP-importin-beta interaction, primary screen, biochemical, FRET, CFP-Ran, YFP-importin-beta, homogeneous. cell-free CFP-Ran/YFP-importin-beta FRET ratio. inhibition, % (no concentration beside the values). actives 1.1% (n = 300,000). AID 2216;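 active means most replicates above 15%; inconclusive means exactly half above 15%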;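 further: 0% = DMSO wells and 100% = Ran loaded with GDP instead of GTP; wells of about 40 µL received 100 nL stock; the first replicate is given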
Vif A3G = inhibitors of Vif binding to APOBEC3G peptide, primary screen, biochemical, TR-FRET, GST-Vif 1-94, biotin-A3G peptide, dose response retest (AID 1117319). TR-FRET GST-Vif / biotin-A3G peptide binding; higher % means a stronger effect; test concentration not given here; strong numbers were not always called active. inhibition, %, or IC50 in µM where a hit was titrated. actives 0.57% (n = 260,000);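 active means above the screen mean plus three standard deviations and confirmed in dose response; inconclusive means results disagree or hit not tested in dose response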;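 further: Vif residues 1-94 fused to GST binding biotinylated APOBEC3G peptide 110-148; 0% = full assay without inhibitor and 100% = GST in place of GST-Vif; retest series ran down from 100 µM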
MLL AF4-AF9 inh = MLL-AF4/AF9 protein interaction inhibition | P42568 | AlphaScreen, biotin-AF4 peptide binding to FLAG-AF9 | inhibition, % at 10 µM | actives 0.47% (n = 350,000);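 active means every replicate reaching a set inhibition limit, whatever the replicate mean, cut at about 25% in these data; inconclusive means mean inhibition reaches that limit but some replicates miss it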;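 further: 0% = plate neutral control median and 100% = total signal loss; the record names both 10 and 1 µM as test concentration; the first replicate is given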
Target sequence (P42568 whole entry, looked up): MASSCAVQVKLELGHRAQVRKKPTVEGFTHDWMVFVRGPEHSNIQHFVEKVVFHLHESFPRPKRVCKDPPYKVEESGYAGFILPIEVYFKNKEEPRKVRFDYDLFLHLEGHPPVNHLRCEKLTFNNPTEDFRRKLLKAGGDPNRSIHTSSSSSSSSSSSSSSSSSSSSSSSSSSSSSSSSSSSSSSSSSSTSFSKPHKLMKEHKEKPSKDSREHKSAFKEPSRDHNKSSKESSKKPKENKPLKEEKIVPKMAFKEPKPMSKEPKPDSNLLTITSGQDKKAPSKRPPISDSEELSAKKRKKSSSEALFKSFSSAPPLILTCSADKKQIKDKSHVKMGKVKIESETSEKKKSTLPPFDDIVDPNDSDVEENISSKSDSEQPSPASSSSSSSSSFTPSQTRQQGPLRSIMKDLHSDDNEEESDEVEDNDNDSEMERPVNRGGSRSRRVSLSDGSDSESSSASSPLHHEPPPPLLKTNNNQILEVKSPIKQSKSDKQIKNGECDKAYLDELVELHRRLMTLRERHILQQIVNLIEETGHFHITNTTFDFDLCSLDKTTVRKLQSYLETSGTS
Ecoli rRNA inh = inhibitors of bacterial rRNA selective over humanized ribosomes; E. coli WT GFP vs humanized-ribosome RFP mutants, fluorescence, 24 h; active compounds read low; DMSO median 0, no signal -100; GFP signal change (wild-type ribosome), % (no concentration beside the values); actives 1.6% (n = 350,000); AID 720706;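 active means significant combined selectivity score with lowered wild-type GFP, culture density cut under 30%, mutant RFP and density less affected; inactive means any of these conditions unmet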; further: one replicate is shown; some compounds called inactive have numbers as strong as hits
Ecoli rRNA inh OD600 = recorded beside Ecoli rRNA inh, whose call it bears; OD600 change, %; measured here: OD600 growth;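 optical density of the mix in the first replicate; 0 = DMSO median and -100 = no signal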
Ecoli rRNA inh RFP = also measured in Ecoli rRNA inh; calls as there; RFP signal change, %; measured here: RFP humanized mutant strains;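 first replicate; 0 = DMSO median and -100 = no signal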
* = called active by the depositor; ? = inconclusive; · = not tested or not shown. An excerpt; the hit share may differ from the screen's.

smiles,Bfl-1 A1 inh,T cruzi repl,Calb FLC,Ecoli rRNA inh RFP,Vif A3G,Ecoli rRNA inh OD600,Ecoli rRNA inh,MLL AF4-AF9 inh,Beta apoptosis,RanGTP-Impb inh
O=C1c2ccccc2-c2ccc(C(=O)N3CCOCC3)cc21,0.3,-8,-1,·,1%,·,·,·,-7,-2.9
C=CCn1c(SC(C)C(=O)NCc2ccc3c(c2)OCO3)nnc1C1CCCCC1 (stereo unspecified),-0.3,18,-23,·,0%,·,·,·,-4,2.4
Cn1ccc2cc(-c3ccc4ncnc(NCc5cccs5)c4c3)ccc21,0.5,·,·,-5.4*,·,-0.2*,-24*,1.4,61,·
Cc1ccc(CN2CCCN(Cc3c(C)cc(C)cc3C)S2(=O)=O)cc1,-0.4,9,7,1.3,-6%,4,9,0.2,-12,-2.9
Cc1ccc(/C=N/N=C2/NC(=O)C(CC(=O)Nc3ccc(Cl)cc3)S2)o1 (stereo unspecified),0.1,-9,20,-3.9,?,-10,-6,5.7,2,3.9
CS(=O)(=O)N(CC(=O)NCCc1ccccc1)C1CCCCC1,-0.6,6,-5,·,5%,·,·,·,-2,-0.9
Cc1cc(-c2ccccc2)n2ncc(C#N)c2n1,0.2,-9,0,-3.4,-6%,4,2,5.7,2,?
CC1CCCC(NC(=O)COC(=O)[C@@H]2CC(O)CN2S(=O)(=O)c2ccc3c(c2)OCCO3)C1C (stereo partly specified),-1.5,6,-4,-2.1*,8%,-15*,-31*,5.7,1,4.4
COc1ccc(NC(=O)CS(=O)(=O)c2ccccc2)cc1,-0.7,0,0,6.0,·,5,2,-0.4,-1,5.5
O=C(CSc1nc2ccccc2n1-c1ccccc1)NCC1CCCO1 (stereo unspecified),-0.1,10,-3,·,8%,·,·,·,1,1.1
Cc1cc(NC(=O)CCC(=O)N(C(C(=O)NC(C)(C)C)c2ccccc2Cl)C(C)(C)C)no1 (stereo unspecified),-0.1,8,19,0.3,·,9,-2,1.8,-3,0.8
CC(C)[C@H](NC(=O)N1c2ccccc2NC(=O)[C@@H]1C(C)C)C(=O)N[C@@H](C(=O)O)c1ccccc1,-0.1,-3,-5,24,·,3,9,-0.7,-1,-0.1
Cc1nnc(-c2ccccc2)nc1N1CCOCC1,0.0,-6,-8,·,?,·,·,·,2,-2.5
CCOC(=O)c1c(NC(=O)c2nc3n(n2)C(C(F)F)CC(C)N3)sc2c1CCCC2 (stereo unspecified),0.0,36,-6,0.7,3%,5,6,0.9,7,-1.0
Nc1nnc(-c2ccccc2)c(-c2ccccc2)n1,1.9,-1,34,·,1%,·,·,·,-8,1.1

In the list so far, these have an aryl thioether with sulfur outside any ring:
smiles,Bfl-1 A1 inh,T cruzi repl,Calb FLC,Ecoli rRNA inh RFP,Vif A3G,Ecoli rRNA inh OD600,Ecoli rRNA inh,MLL AF4-AF9 inh,Beta apoptosis,RanGTP-Impb inh
C=CCn1c(SC(C)C(=O)NCc2ccc3c(c2)OCO3)nnc1C1CCCCC1 (stereo unspecified),-0.3,18,-23,·,0%,·,·,·,-4,2.4
O=C(CSc1nc2ccccc2n1-c1ccccc1)NCC1CCCO1 (stereo unspecified),-0.1,10,-3,·,8%,·,·,·,1,1.1

Returning to the listing; the 2 compounds before the break are reprinted first.
smiles,Bfl-1 A1 inh,T cruzi repl,Calb FLC,Ecoli rRNA inh RFP,Vif A3G,Ecoli rRNA inh OD600,Ecoli rRNA inh,MLL AF4-AF9 inh,Beta apoptosis,RanGTP-Impb inh
CCOC(=O)c1c(NC(=O)c2nc3n(n2)C(C(F)F)CC(C)N3)sc2c1CCCC2 (stereo unspecified),0.0,36,-6,0.7,3%,5,6,0.9,7,-1.0
Nc1nnc(-c2ccccc2)c(-c2ccccc2)n1,1.9,-1,34,·,1%,·,·,·,-8,1.1
Fc1ccc(-c2nnc(SCc3ncc(-c4ccccc4)o3)n2CC2CCCO2)cc1 (stereo unspecified),0.3,0,-7,·,-4%,·,·,·,-5,0.9
C#CCOCCOCCOCCNc1nc(N2CCN(C(=O)[C@H](CCCN=C(N)N)n3cc(C(N)[C@H](C)CC)nn3)CC2)nc(N2CCN(C(=O)[C@H](CC(N)=O)n3cc(C(N)[C@@H](C)CC)nn3)CC2)n1 (stereo partly specified),-0.8,·,·,2.1,3%,9,8,7.9,-3,·
CC1CCN(c2ccc3c(c2)S(=O)(=O)c2cccc(C(=O)NCc4ccc(F)cc4)c2C3=O)CC1,2.8,·,·,4.1,·,-1,5,-7.2,7,·
Cc1ccc(C(=O)OCC(=O)Nc2sc3c(c2C#N)CCCC3)cc1NC(=O)c1ccco1,0.2,14,-2,·,7%,·,·,·,-1,?
CC1CCN(C(=S)Nc2ccc3nc4n(c(=O)c3c2)CCCCC4)CC1,0.5,-7,28,·,-1%,·,·,·,-4,-0.1
CC/C(=N\NC(=O)Cc1ccc(Br)cc1)c1cccs1,0.1,2,17,3.8,·,7,1,1.2,-8,0.6
COc1ccccc1N(C)S(=O)(=O)c1ccc(C(=O)O)cc1,1.0,-5,8,-0.3,-2%,5,6,-0.9,-6,1.3
O=C(NCc1ccccc1Cl)C1CCN(S(=O)(=O)c2ccc(N3CCCC3=O)cc2)CC1,-1.1,-12,-1,-1.6,·,1,0,-6.7,0,-4.2
Cc1cc(C)n(-c2nc(NC(C)C)nc(NC(C)C)n2)n1,1.6,23,-21,-9.1,-6%,-61,-40,·,18,-3.5
CC(C)(C)C1CCC(=NNC(=O)c2cc(-c3ccccc3)n[nH]2)CC1 (stereo unspecified),0.0,-14,-15,-1.9,11%,7,-8,-0.8,0,0.4
Oc1ccccc1-c1csc(-c2ccccc2)n1,1.1,-7,?,-0.9,-5%,-31,-29,4.6,·,1.1
CC(=O)c1cccc(NC(=O)c2ccc(N(Cc3ccccc3C)S(C)(=O)=O)cc2)c1,0.0,4,2,·,1%,·,·,·,3,5.4
CCn1c(SCC(=O)N2CCOCC2)nnc1-c1cccs1,-0.1,-16,25,·,31%,·,·,·,0,0.1
COc1ccc([N+](=O)[O-])cc1NC(=O)c1ccc(CN(c2ccc(C)c(C)c2)S(C)(=O)=O)cc1,-0.3,24,?,3.5,16%,14,10,1.9,-4,0.4
Cc1ccc(C(=O)OCC(=O)NC(=O)c2cccn2C)cc1,-0.7,-5,1,-6.6,-2%,4,9,-71,-11,3.3
CCCCn1c(N)c(N(CCOC)C(=O)c2cc3c(s2)CCCCC3)c(=O)[nH]c1=O,-0.4,-4,-4,1.4,3%,-3,9,0.6,-4,?
O=C1N(Cc2ccccc2)CCCC12CCCN(Cc1ccccc1)C2=O,0.8,-4,0,·,10%,·,·,·,-1,-1.3
O=C(CNc1cc(S(=O)(=O)N2CCCC2)ccc1OCC(F)(F)F)Nc1ccc(SC(F)F)cc1,0.7,14,4,-7.4,5%,-12,-5,0.6,25,4.1
COc1ccc(C2c3ccc(O)cc3Oc3ncn(CC(C)C)c(=N)c32)cc1 (stereo unspecified),-0.2,1,-13,-1.1,4%,6,4,·,0,13
COc1nc(N2CCCCCC2)nc(N2CCCCCC2)n1,0.0,7,-9,·,2%,·,·,·,5,-1.8
CN(C)c1ccc(P(=O)(OCc2ccccc2)C(O)c2ccc(Cl)cc2)cc1 (stereo unspecified),0.2,13,-3,1.4,3%,10,8,4.9,·,0.9
CCN(CC(=O)Nc1ccccc1C(F)(F)F)C(=O)CCOc1ccc(C)cc1,-0.5,-3,-4,-2.5,-4%,-10,-14,-2.0,-3,-3.9
CCn1c(N2CCN(C(=S)NC)CC2)nc2ccccc21,0.5,19,-18,-0.1,6%,-2,4,-58,-6,0.9
Cc1nc(SCc2nc3c(C)cccc3[nH]2)c2oc3ccccc3c2n1,0.4,·,·,2.6,·,-12,-10,-4.0,7,·
CC(C)c1ccc(/C=N/NC(=O)CC(=O)NC2CCCCC2)cc1,1.0,3,0,-1.7,·,6,7,-1.4,4,?
COC(=O)c1ccc(NC(=O)c2nc(S(=O)(=O)Cc3cccc(C)c3)ncc2Cl)cc1,2.2,-9,0,6.8,·,15,3,-4.6,75*,4.0
O=[N+]([O-])c1cccc(Oc2cnccn2)c1,0.2,-9,1,-2.4,·,9,3,-0.7,·,-3.6
Cc1cccc(NC(=O)NC(C)C(c2ccccc2)N2CCN(C)CC2)c1 (stereo unspecified),0.0,-7,-1,-1.8,·,10,7,-14,1,5.5
Cc1ccc2oc(=O)c3cnn(CC(=O)NCCN4CCOCC4)c3c2c1,·,-13,16,3.0,-1%,4,-1,-0.4,-3,2.5
COc1ccc(S(=O)(=O)N2CCCC2CNC(=O)C(=O)NC2CC2)cc1 (stereo unspecified),0.3,7,-1,-1.8,2%,7,-2,1.4,·,7.4
CC(C)(C)NC(=O)Cn1c(Cl)nc2ccccc21,0.6,-6,3,4.4,-1%,9,8,-0.6,-1,-2.8
CC(=O)Nc1cc2c(ccc3ccccc32)oc1=O,-0.9,7,-13,1.3,1%,6,9,-0.1,·,?
COc1ccc(-n2nnnc2SCC(=O)NNC(=O)c2ccc([N+](=O)[O-])cc2)cc1,-0.2,-3,-6,·,-1%,·,·,·,-4,?
CC1CC(C)CN(S(=O)(=O)c2ccc3oc(=O)ccc3c2)C1 (stereo unspecified),-0.1,-7,6,0.4,·,12,-2,1.7,-1,-1.8
O=S(=O)(c1ccc(-c2csc(-c3cccnc3)n2)cc1)N1CCCCC1,0.2,66*,9,12,8%,-61,-37,·,4,-2.1
Cc1nc2ncnn2c(C)c1CCC(=O)Nc1csc(N)n1,-0.3,-26,21,·,?,·,·,·,0,4.0
CN(C)c1cc(-c2ccc(Cl)cc2Cl)oc(=O)c1Cl,-1.0,24,2,1.0,·,-2,-9,3.7,-6,0.7
CN1c2ccccc2C2(C)CCCC3=Cc4cc([N+](=O)[O-])cc([N+](=O)[O-])c4OC312 (stereo unspecified),-0.3,49,21,·,·,·,·,·,16,-5.1
COc1ccc(-c2c(=O)n(OCc3ccccn3)c3ccccc3[n+]2[O-])cc1OC,0.6,-5,8,·,28%,·,·,·,·,3.7
CCOC(=O)c1c(C)c(C(=O)NC(C)COC)c(C)n1C (stereo unspecified),-0.8,-3,15,·,-5%,·,·,·,-7,1.9
O=S(=O)(Cc1cccc(F)c1)c1c[nH]c2ccccc12,0.1,7,-4,2.4,?,-9,-10,15,-8,0.7
CCOc1ccc(C2CC(=O)NC(SC)=C2C#N)cc1 (stereo unspecified),0.1,-7,11,0.2,-2%,-5,-3,0.3,-1,?
